Screening results: PubChem, National Center for Advancing Translational Sciences (NCATS)
AmpC inh no det = inhibitors of E. coli AmpC beta-lactamase without detergent | AmpC nitrocefin hydrolysis, absorbance 480 nm, no detergent; potencies from a single point are estimates | Potency, µM (highest dose often 28.7 µM), inactives show at the highest dose activity change, negative = inhibition | 1.8% of 71,000 active; active = falling curve, for most hits resting on a single point; inconclusive = weak or doubtful change; inactive = flat or rising curve; note: % of control where 0% means no effect; about half of the hits show no inhibition at the top dose; a quarter of the inactives give rising signals
Target sequence (P00811 whole entry, looked up): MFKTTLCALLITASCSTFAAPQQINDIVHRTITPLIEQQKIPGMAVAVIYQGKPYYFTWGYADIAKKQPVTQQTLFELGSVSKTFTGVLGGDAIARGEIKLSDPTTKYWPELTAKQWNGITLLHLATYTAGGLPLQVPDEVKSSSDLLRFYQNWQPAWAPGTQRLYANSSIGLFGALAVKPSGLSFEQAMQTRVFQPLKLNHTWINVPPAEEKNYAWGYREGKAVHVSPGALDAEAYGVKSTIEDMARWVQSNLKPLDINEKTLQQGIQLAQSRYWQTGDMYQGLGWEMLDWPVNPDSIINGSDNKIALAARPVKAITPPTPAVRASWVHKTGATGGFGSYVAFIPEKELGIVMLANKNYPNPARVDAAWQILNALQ
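AmpC in 20 mM phosphate buffer pH 7.0 was preincubated 15 min at room temperature with compounds. Nitrocefin (800 uM stock) was then added and hydrolysis followed at 480 nm every 20 s for 4 min.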
* = called active by the depositor; ? = inconclusive; & = joins results of further samples; [ ] = remark or other dose. Potency is the fitted concentration of half-maximal effect.

SMILES | AmpC inh no det
COc1ccc(C(=O)OCCN=C2NS(=O)(=O)c3ccccc32)cc1OC | -15%
O=S1(=O)CC2(N3CCOCC3)CCCCC21 (stereo unspecified) | -2%
CCCc1nc2ccccc2c(=O)n1/N=C/c1ccc(O)cc1O | 1%
CCCCNC(=O)CCn1c(=O)c2ccccc2n(CC(=O)Nc2ccccc2OCC)c1=O | 25%
COc1ccc(Nc2nc(N)nc(C(F)(F)F)n2)c(OC)c1 | -3%
Cc1ccccc1N1CCN(S(=O)(=O)c2ccc3oc(=O)ccc3c2)CC1 | 11%
O=P(OCC(F)(F)C(F)F)(N1CCCCC1)N1CCCCC1 | 46%
O=C(C1CC(c2ccc(F)cc2)=NO1)N1CCN(Cc2ccccc2)CC1 (stereo unspecified) | 118%
COC(=O)CSc1nnc(-c2sc3cc(OC)ccc3c2Cl)n1C | 59%
NC(=O)CSc1nnc(CNc2ccc(F)cc2)n1CC1CCCO1 (stereo unspecified) | 3%
Nc1ncc([N+](=O)[O-])s1 | -8%
COc1ccc(NC(=O)Cc2nn(C)c(=O)c3ccccc23)c2ncccc12 | 6%
COC(=O)C1=C(N)OC2=C(C(=O)CC(C)(C)C2)C1c1cccnc1 (stereo unspecified) | -11%
COc1ccc(-c2nc(CN3CCC(C(=O)N4CCc5ccccc54)CC3)c(C)o2)cc1OC | 115%
CCCn1c(C)nc2c(N3CCOCC3)nc(C)nc21 | 18%
Cc1ccc(NS(=O)(=O)c2cccc(C(=O)n3ncc(C#N)c3N)c2)c(C)c1 | ?
O=C(Nc1ccc2c(c1)OCO2)c1cccc(Cl)c1 | -23%
Clc1ccc(-n2nnnc2-c2ccccc2)cc1Cl | 8%
c1coc(CN(Cc2cccs2)Cc2nnnn2C2CCCCC2)c1 | 56%
CCOC(=O)c1c(C)[nH]c(C(=O)CSc2nnnn2-c2ccccc2)c1C | -5%
Nc1nc(SCc2nc3scc(-c4cccs4)c3c(=O)[nH]2)n[nH]1 | -8%
CCOc1ncccc1C(=O)OCC(=O)N1CCN(S(=O)(=O)c2ccc(Cl)cc2)CC1 | 59%
CC12CN3CC(C)(CN(C1)C3c1ccc3c(c1)OCO3)C2=O (stereo unspecified) | 1%
C[C@](Cc1ccc(O)c(O)c1)(NN)C(=O)O | 0%
COc1ccc2c(c1)N(C)C(=O)CC(c1ccccc1)=N2 | 46%
CC(NC(=O)C1CCN(S(=O)(=O)N2CCCCCC2)CC1)c1ccccc1 (stereo unspecified) | 33%
CCn1c(COc2ccccc2C)nnc1SCC(=O)O | 18%
CC(=O)Nc1ccc(OCC(O)CN2CCN(c3cccc(Cl)c3)CC2)cc1 (stereo unspecified) | 57%
c1ccc(Cc2nnc3sc(-c4cccnc4)nn23)cc1 | 14%
CCOc1cc(C2C(C#N)=C(N)OC3CCCC(=O)C32)ccc1OCCN1CCOCC1 (stereo unspecified) | 22%
COc1cc(CN2CCC(C(=O)N3CCN(c4ccccc4F)CC3)CC2)cc(OC)c1O | 36%
O=S(=O)(NCCSc1nnc(-c2ccco2)n1-c1ccccc1)c1ccccc1 | 24%
CCc1nnc(NC(=O)CCC(=O)N2CCN(Cc3cc(Cl)ccc3OC)CC2)s1 | 96%
Cc1cccc(NC(=O)Cn2c(=O)n(C)c3ccccc32)c1 | 8%
Clc1ccc([C@@H](OCCN2CCCCC2)c2ccccc2)cc1 | 25%[12.8 µM]
COc1ccc(-c2cc([C@H](O)[C@@H]3CCCCN3)c3ccccc3n2)cc1 | -8%[5.75 µM]
CN(C)CCCN1C(=O)c2oc3ccc(F)cc3c(=O)c2C1c1cccnc1 (stereo unspecified) | 4%
CC(C)NC(=O)CSc1nncn1-c1ccccc1 | 1%
CC1=CC(C)(C)Nc2ccccc21 | -7%&4%
CCCN=Cc1sc2ccc(OCC)cc2c1O | 8%
O=c1c(-c2ccc(F)cc2)nc2cnc(Oc3cccc(Cl)c3)nc2n1C1CC1 | 7%
Cc1c(C(=O)OCC2CCCO2)[nH]c2c1C(=O)CC(c1ccco1)C2 (stereo unspecified) | -9%
COc1ccc2c(c1)c(C(O)CN1CCC3(CC1)OCCO3)c(C)n2C (stereo unspecified) | 5%
O=C(Nc1ccc2nc(-c3ccco3)c(-c3ccco3)nc2c1)N1CCCCCC1 | -7%
O=c1[nH]c2ccc(Cl)cc2c(-c2ccccc2)c1N1CCN(c2ccccn2)CC1 | 5%
NS(=O)(=O)C[C-]1C=C[CH]([Sb-]([Cl])([Cl])([Cl])([Cl])[Cl])C=C1.c1ccncc1 (stereo unspecified) | 4%[5.75 µM]
NC1=NC(=O)CC(C(=O)NCc2ccccc2)S1 (stereo unspecified) | 3%
CN1CCc2nc(NC(=O)c3cccc(S(=O)(=O)N4CCc5ccccc54)c3)sc2C1 | 142%
O=C(O)[C@@H](Br)[C@@H](Br)c1ccccc1[N+](=O)[O-] | 2%[5.75 µM]
Cc1cc(=O)[nH]c2c1c(C)nn2C1CCCC1 | 1%
(more compounds)
SMILES | AmpC inh no det
O=S(=O)(c1ccc(S(=O)(=O)N(Cc2ccco2)Cc2ccccc2Cl)cc1)N1CCCC1 | -6%
Cn1cnnc1SCc1ccc(F)c2ccccc12 | 31%
COC(=O)[C@H]1C[C@@H]1[C@H](NC(=O)c1cc(C)on1)c1ccccc1 | 4%
CC(C)CCOP(=O)(c1ccc(N(C)C)cc1)C(O)c1ccccn1 (stereo unspecified) | 38%
O=C(CS(=O)(=O)Cc1ccccc1)Nc1nnc(C2CCCCC2)s1 | -14%
COc1ccc(S(=O)(=O)N2CCCN(S(=O)(=O)c3ccc(OC)cc3C)CC2)c(C)c1 | 8%
CCOC(=O)c1[nH]c2ccc(OC)cc2c1NC(=O)C(C)N1CCSCC1 (stereo unspecified) | 35%
O=C1CCCC2=C1C(c1ccco1)Nc1ccc(C(=O)c3ccccc3)cc1N2 (stereo unspecified) | 16%
Cc1nc(NC2CCCCC2)c2nc(-c3ccccc3)n(CCCN(C)C)c2n1 | 103%
Cc1noc(C)c1C(=O)N1CCC[C@@]2(CCN(C(=O)Nc3ccccc3)C2)C1 | 5%
CN(C)C(=O)c1ccc(-c2cncnc2N2CCNCC2)cc1 | -6%
COC(=O)[C@@H](NC(=O)Nc1ccc(OC(F)(F)F)cc1)C(C)C | 1%
O=C(Nc1cccc(F)c1)c1ccc(S(=O)(=O)NCC2CCCO2)cc1 (stereo unspecified) | -8%
COc1ccccc1N1CC(O)=C(c2nc3ccccc3c(=O)[nH]2)C1=N | 29%
COc1ccc(CC(=O)NCc2nnc(SCC(=O)Nc3nccs3)n2-c2ccccc2)cc1 | 53%
Cc1cc2oc(C(=O)NCc3ccc4c(c3)OCO4)c(C)c2cc1C | -12%
CS(=O)(=O)N1CCN(C(=O)CCC2CCCC2)CC1 | -1%
CCOC(=O)c1cc(C)n(CCc2ccccc2)c1C | 6%
CC1(C)Cc2c(sc3nc(SCC(=O)O)[nH]c(=O)c23)CO1 | -9%
Cn1c(=O)c2c(nc(NCCCO)n2Cc2cccc(Br)c2)n(C)c1=O | 16%
COc1cccc(Cn2c(=O)c(-c3cn(C)c4ccccc34)nc3cnc(N4CCNCC4)nc32)c1 | 72%
Cc1ccc(S(=O)(=O)NCc2nc3ccccc3c(=O)n2N)cc1 | 0%
O=C(Nc1cccnc1)c1ccc(Cl)c(S(=O)(=O)N2CCCCCC2)c1 | 7%
CC(=O)c1c(COC(=O)c2ccncc2)nc2ccccc2[n+]1[O-] | -12%
O=c1[nH]c(NCCCO)nc2c1C1(CCCC1)Cc1ccccc1-2 | 37%
O=C(C1CCCCC1)N1CCN(S(=O)(=O)c2ccc(Cl)cc2)CC1 | ?
c1ccc(-n2nnnc2Sc2n[nH]c(-c3ccncc3)n2)cc1 | -4%
Cc1ccccc1-c1cncnc1NCCc1cnc[nH]1 | 9%
CCn1ncc(Br)c1C(=O)Nc1ccc(F)cc1F | 14%
COc1cccc(Cn2c(=O)c(-c3ccccc3)nc3cnc(N4CCN(C)CC4)nc32)c1 | 152%
CCc1ccc2[nH]c(=O)c(C(c3nnnn3CC3CCCO3)N3CCCc4ccccc43)cc2c1 (stereo unspecified) | 86%
CCC1(C)CC(=O)NC(=O)C1 | -6%[12.8 µM]
COc1cc(CN2CC3CC(C2)c2cccc(=O)n2C3)cc(OC)c1OC (stereo unspecified) | 26%
COc1ccc(N2CC(C(=O)Nc3ccc4c(c3)OCO4)CC2=O)cc1 (stereo unspecified) | 0%
OC(COc1ccccc1)CSc1ncn[nH]1 (stereo unspecified) | -11%
Cc1cc(C)nc(Sc2c(F)c(F)c(C(F)(F)F)c(F)c2F)n1 | -8%
C=C(C)Cn1c(N2CCC(Cc3ccccc3)CC2)nc2c1c(=O)[nH]c(=O)n2C | 88%
COc1ccc(NC(=O)CSc2ccccn2)cc1OC | 2%
COc1ccccc1CN1C(=O)CCC1(C)C(=O)NC1CCCCCC1 (stereo unspecified) | 93%
C=CCN=C1SCC(=O)N1S(=O)(=O)c1ccccc1 | 5%

Two entries picked at random from the list so far:
SMILES | AmpC inh no det
Cc1noc(C)c1C(=O)N1CCC[C@@]2(CCN(C(=O)Nc3ccccc3)C2)C1 | 5%
C=C(C)Cn1c(N2CCC(Cc3ccccc3)CC2)nc2c1c(=O)[nH]c(=O)n2C | 88%

In a second layout: entries from further up
Molecule,AmpC inh no det
O=C(Nc1cccnc1)c1ccc(Cl)c(S(=O)(=O)N2CCCCCC2)c1,7%
CC(=O)c1c(COC(=O)c2ccncc2)nc2ccccc2[n+]1[O-],-12%
O=c1[nH]c(NCCCO)nc2c1C1(CCCC1)Cc1ccccc1-2,37%
O=C(C1CCCCC1)N1CCN(S(=O)(=O)c2ccc(Cl)cc2)CC1,?
c1ccc(-n2nnnc2Sc2n[nH]c(-c3ccncc3)n2)cc1,-4%
Cc1ccccc1-c1cncnc1NCCc1cnc[nH]1,9%
CCn1ncc(Br)c1C(=O)Nc1ccc(F)cc1F,14%
COc1cccc(Cn2c(=O)c(-c3ccccc3)nc3cnc(N4CCN(C)CC4)nc32)c1,152%
CCc1ccc2[nH]c(=O)c(C(c3nnnn3CC3CCCO3)N3CCCc4ccccc43)cc2c1 (stereo unspecified),86%
CCC1(C)CC(=O)NC(=O)C1,-6%[12.8 µM]
COc1cc(CN2CC3CC(C2)c2cccc(=O)n2C3)cc(OC)c1OC (stereo unspecified),26%
COc1ccc(N2CC(C(=O)Nc3ccc4c(c3)OCO4)CC2=O)cc1 (stereo unspecified),0%
OC(COc1ccccc1)CSc1ncn[nH]1 (stereo unspecified),-11%
Cc1cc(C)nc(Sc2c(F)c(F)c(C(F)(F)F)c(F)c2F)n1,-8%
C=C(C)Cn1c(N2CCC(Cc3ccccc3)CC2)nc2c1c(=O)[nH]c(=O)n2C,88%
COc1ccc(NC(=O)CSc2ccccn2)cc1OC,2%
COc1ccccc1CN1C(=O)CCC1(C)C(=O)NC1CCCCCC1 (stereo unspecified),93%
C=CCN=C1SCC(=O)N1S(=O)(=O)c1ccccc1,5%

More structures.
SMILES | AmpC inh no det
CCC1(CC)C(=O)NC(=Nc2cccc(C(F)(F)F)c2)NC1=O | -3%
Cc1ccc(CNC(=O)CS(=O)Cc2nc(-c3ccccc3C)oc2C)cc1 (stereo unspecified) | 94%
O=C1NC(c2ccccc2Cl)Nc2ccccc21 (stereo unspecified) | 6%
COC(=O)Cc1c(C)c2c(OCc3nn[nH]n3)cc(C)cc2oc1=O | -20%
CCOc1ccc(C2c3c(oc4ccccc4c3=O)C(=O)N2c2ccccn2)cc1OC (stereo unspecified) | 2%
CCOC(=O)CSc1nnc(C)n1N | -1%
O=S(=O)(c1ccc2c(c1)OCCCO2)N1CCNCC1 | -7%
Cc1ccc(NC(=O)CSc2nnc(-c3ccccc3C)o2)cc1C | -11%
CCCn1c(SCC(=O)N2CCCc3ccccc32)nnc1-c1ccccn1 | 61%
Cc1nc2cnc(OCc3ccccc3)nc2n(CCc2ccccc2)c1=O | 63%
N#CC(c1nc2ccccc2nc1N1CCCC1)S(=O)(=O)c1cccs1 (stereo unspecified) | -7%
Cc1ccccc1C(NC(N)=O)c1ccccc1 (stereo unspecified) | 4%
O=C(O)c1cccc(COc2ccc(CO)cc2Cl)c1 | -8%
CCCOc1cc(N)ccc1C(=O)OCCN(CC)CC | -8%[12.8 µM]
O=C(OCCN1CCOCC1)C1(c2ccccc2)CCCCC1 | 117%&70%
CCOC(=O)CSc1nc(N)c(C#N)c(CC(C)C)c1C#N | 15%
COc1ncc2nc(-c3cccs3)c(=O)n(-c3ccccc3)c2n1 | -10%
CCN(CCCNS(=O)(=O)c1ccc2c(c1)oc(=O)n2C)c1cccc(C)c1 | 14%
CCN1CCN(c2nc3c(c(=O)n(C)c(=O)n3C)n2CCSc2nccc(C)n2)CC1 | 3%
O=C(O)CCn1[nH]c(=O)ccc1=O | -13%
Nc1nc(SCc2ccc3c(c2)OCO3)n[nH]1 | -10%
Cc1ccc(S(=O)(=O)N[C@@H](CCCCN)C(=O)CCl)cc1 | 6%
Cc1ccc(Nc2nc3nonc3[nH]c2=O)cc1 | -14%
CC(NS(C)(=O)=O)C(c1cccs1)N1CCN(c2ccccc2)CC1 (stereo unspecified) | 25%
CC1=NCCN1S(=O)(=O)c1ccc(Br)c(C)c1 | 5%
CCC(=O)Nc1nc2c(OC)ccc(OC)c2s1 | -2%
CC1CCCCC1NC(=O)c1ccc2c(c1)[nH]c(=O)n2C1CCCC1 (stereo unspecified) | 34%
CCOC(=O)c1cc(-c2ccc(N)cc2)sc1N | -24%
O=C(CSc1nnc(CNc2ccccc2)o1)c1ccc2c(c1)OCCO2 | -14%
O=C1C2ON(c3ccccc3)C(c3ccccn3)C2C(=O)N1c1ccc(Br)cc1 (stereo unspecified) | 12%
CCOc1ccc(C(C)(N)C(=O)O)cc1 (stereo unspecified) | 2%
Cc1cc(C)c(NC(=O)CSc2nnc(Cc3cccn3C)n2-c2ccc(F)cc2)c(C)c1 | 113%
Cn1c(SCC(=O)c2ccccc2)nc2cccnc21 | -2%
O=C(CN(Cc1cccs1)C(=O)CN1C(=O)COc2ccccc21)NCc1ccco1 | -12%
COc1ccc(-n2c(SCC(=O)Nc3ccc4c(c3)OCO4)nnc2C(C)N2CCCCC2)cc1 (stereo unspecified) | 66%

Only part of the results is shown; rates above refer to the full screens.
